Bioassay records (PubChem BioAssay)
Polio RdRp inh – poliovirus RdRp elongation inhibitors, primary screen, biochemical, fluorescence polarization, total intensity. Genome polyprotein (Poliovirus type 1 (strain Mahoney)), P03300. 150,000 tested, 0.66% active. % elongation, % (compound at 16.7 µg/mL). AID 588519, 2011. poliovirus polymerase elongation; active compounds read low; in the data active = % elongation below about 90%; note: some results filed as inactive read as strong as hits
Target sequence (P03300 1749-2209 limits assumed): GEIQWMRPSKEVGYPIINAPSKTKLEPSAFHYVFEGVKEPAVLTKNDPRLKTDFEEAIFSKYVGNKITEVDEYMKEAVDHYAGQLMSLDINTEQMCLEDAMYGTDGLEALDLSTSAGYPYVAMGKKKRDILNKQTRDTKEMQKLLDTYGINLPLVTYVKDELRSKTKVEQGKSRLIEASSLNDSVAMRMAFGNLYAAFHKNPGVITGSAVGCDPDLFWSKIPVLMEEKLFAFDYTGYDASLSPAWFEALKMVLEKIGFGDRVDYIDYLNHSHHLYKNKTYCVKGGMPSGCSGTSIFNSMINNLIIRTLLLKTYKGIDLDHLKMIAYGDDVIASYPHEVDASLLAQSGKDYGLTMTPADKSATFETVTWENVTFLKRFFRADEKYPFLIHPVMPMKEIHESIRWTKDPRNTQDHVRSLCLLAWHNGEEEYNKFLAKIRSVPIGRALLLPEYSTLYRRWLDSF
Mtb MbtI inh – MbtI salicylate synthase inhibitors, primary screen, biochemical, fluorescence intensity | purified MbtI enzyme, fluorescence intensity read-out | P9WFX0 | inhibition, %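 (about 17 µg/mL by stock and volumes)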 | 100,000 tested, 0.89% active | AID 493033, 2011;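 active = above 50% in both replicates, above 80% if mildly self-fluorescent; inactive = the rest, strongly fluorescent compounds included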;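 note: 0% = mean of negative and 100% = mean of positive controls; one replicate is shown; some compounds called inactive have numbers as strong as hits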
Mtb MenB inh – M. tuberculosis MenB inhibitors, primary screen, biochemical, absorbance; 100,000 tested, 0.43% active; 1,4-dihydroxy-2-naphthoyl-CoA synthase (Mycobacterium tuberculosis (strain ATCC 25618 / …; inhibition, %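 (about 12 µg/mL by stock and volumes)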; MenB enzyme assay, absorbance read-out; some hits fall short of the stated cut;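 active = mean of two replicates above 30%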;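 note: 0% = no compound and 100% = wells with inactive enzyme; the first replicate is given; strong numbers were not always called active; inactives centre near -10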
Target sequence (P9WNP5 whole entry, looked up): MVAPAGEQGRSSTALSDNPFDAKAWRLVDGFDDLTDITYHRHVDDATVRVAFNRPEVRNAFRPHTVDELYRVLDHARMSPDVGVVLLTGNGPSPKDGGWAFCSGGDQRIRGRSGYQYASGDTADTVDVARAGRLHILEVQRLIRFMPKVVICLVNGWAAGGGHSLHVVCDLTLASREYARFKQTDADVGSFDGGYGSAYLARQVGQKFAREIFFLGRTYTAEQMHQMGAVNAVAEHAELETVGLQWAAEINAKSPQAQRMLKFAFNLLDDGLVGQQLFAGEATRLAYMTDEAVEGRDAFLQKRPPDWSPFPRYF
Polio RdRp inh intensity – second read-out of Polio RdRp inh, no call of its own (marks repeat the call); % elongation; measured here: total intensity read-out; formula for this scale not given here;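 total fluorescence in place of polarization; lower means less elongation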
The depositor's hits bear a star; · = not tested or not shown; & = joins results of further samples.

cpd | SMILES | Polio RdRp inh | Polio RdRp inh intensity | Mtb MbtI inh | Mtb MenB inh
1 | CSc1ccc(CN(C)C(C)C(=O)Nc2cccc(C#N)c2)cc1 (stereo not given) | 100 | 107 | 6 | -7
2 | O=C(NCc1ccccc1)NCC1CCN(CCc2ccccc2)C1 (stereo not given) | 103 | 103 | -17 | -7
3 | NC(=O)C1CCN(Cn2nnc3ccccc32)CC1 | 105 | 110 | -3 | 0
4 | CCN(CC)c1ncnc2sc(C)c(C)c12 | 100 | 103 | 0 | ·
5 | O=C1/C(=C\c2ccsc2)N2CCC1CC2 | 104 | 106 | 16 | -17
6 | COC(=O)C1=C(C)NC(=O)/C1=C\c1ccc(C)cc1 | 101 | 102 | 14 | -58
7 | c1ccc(Cn2c(Sc3nnnn3-c3ccccc3)nnc2-c2ccccc2)cc1 | 99 | 101 | -4 | -12
8 | O=C(CCc1nnc(-c2ccccc2)o1)c1ccc(Cl)cc1 | 100 | 95 | 11 | 11
9 | COc1ccc(N=Cc2ccc3ccccc3c2)cc1 | 105 | 108 | · | -16
10 | CCOc1ccc(C2=CC(c3cccc(OC)c3)c3ccccc3O2)cc1 (stereo not given) | 101 | 100 | 18 | -21
11 | CS(=O)(=O)N1Cc2ccccc2CC1C(=O)OCC(=O)NCc1ccccc1 (stereo not given) | 101 | 96 | 3 | 9
12 | CC(=O)Nc1ccc(C(=O)N2CCc3ccccc3C2)cc1 | 102 | 100 | 10 | -37

(list continues)
cpd | SMILES | Polio RdRp inh | Polio RdRp inh intensity | Mtb MbtI inh | Mtb MenB inh
13 | O=C(/C(=N/Nc1ncnc2sc3c(c12)CCCC3)c1ccco1)c1ccco1 | 111 | 111 | 4 | -66
14 | O=C(CCc1ccc(S(=O)(=O)N2CCOCC2)cc1)N/N=C/c1ccco1 | 104 | 111 | 16 | -6
15 | O=C(O)CCN1C(=O)c2ccc(Oc3ccc4c(c3)C(=O)N(CCC(=O)O)C4=O)cc2C1=O | 102 | 103 | -9 | -31
16 | O=C(O)C1C2C=CC3(O2)C1C(=O)N1CCCOC13 (stereo not given) | 100 | 99 | -1 | 11
17 | CN(C)S(=O)(=O)c1cccc(COC(=O)c2ccc(Cl)cc2O)c1 | 102 | 104 | 24 | -12
18 | c1ccc(CN(Cc2cccs2)C(c2cccs2)c2nnnn2C2CCCC2)cc1 (stereo not given) | 99 | 99 | 0 | 0
19 | O=C(COC(=O)CSc1ccc(F)cc1)NC1CC1 | 101 | 104 | 0 | -9
20 | C=CCN(C(=O)c1cn(CC(C)C)c(=O)c2cc(OC)c(OC)cc12)c1ccccc1 | 101 | 102 | -5 | -3
21 | Cc1ccc2c(CC(=O)NCC3CCCCC3)coc2c1 | 101 | 106 | -6 | -16
22 | COc1ccc(-c2nc(C)c(CCNS(=O)(=O)c3ccc4c(c3)OCCO4)s2)cc1OC | 104 | 104 | 106 | -2
23 | CCc1ccc2[nH]c(C)c(CN3CCCCC3)c(=O)c2c1 | 103 | 103 | -1 | 12
24 | CC1CCN(C(=O)COC(=O)COc2ccccc2C#N)CC1 | 101 | 107 | -3 | -5

Screen by screen, from the results shown.
Entries 3 to 10 in Polio RdRp inh intensity read 110, 103, 106, 102, 101, 95, 108, 100
Entries 3 to 10 in Polio RdRp inh read 105, 100, 104, 101, 99, 100, 105, 101

New compounds follow.
cpd | SMILES | Polio RdRp inh | Polio RdRp inh intensity | Mtb MbtI inh | Mtb MenB inh
25 | Cc1cc2ncn(-c3ccc(S(=O)(=O)N4CCCC4)cn3)c2cc1C | 99 | 99 | 35 | -13
26 | O=C(Cc1ccccc1)N1CCN(CCCc2ccccc2)CC1 | 100 | 96 | · | -1
27 | c1ccc(Nc2nc(N3CCCC3)nc(N3CCCC3)n2)cc1 | 99 | 104 | -3 | -38
28 | CCC(=O)n1nc(-c2ccccc2)nc1N | 106 | 98 | 8 | -68
29 | COC(=O)C1=C(C)N=c2s/c(=C/c3ccc(OC)cc3)c(=O)n2C1c1cccs1 (stereo not given) | 103 | 110 | -9 | -15
30 | CC1CC(NNc2ccc(Br)cc2)NC(=S)N1 (stereo not given) | 101 | 104 | 15 | -7
31 | COc1ccc(C(=O)/C=C(\N)C(F)(F)F)c(O)c1 | 100 | 105 | -22 | -68
32 | CN(C)S(=O)(=O)n1cc(/C=C(\NC(=O)c2ccccc2)C(=O)N2CCOCC2)c2ccccc21 | 101 | 102 | -4 | -1
33 | NC1=NC(=Nc2ccc(Cl)cc2)c2ccccc21 | 100&101 | 102&102 | 11&8 | -34&-43
34 | Cc1ccc(N2C(=O)N(CCN3C(=O)c4ccccc4C3=O)C(=O)C2C)cc1 (stereo not given) | 109 | 110 | -9 | -6
35 | CCOC(=O)Nc1cc(C(C)(C)C)on1 | 102 | 102 | -19 | -7
36 | COc1ccccc1-c1noc(-c2ccccc2C(=O)NCc2ccco2)n1 | 105 | 102 | 59* | -17

(further entries)
cpd | SMILES | Polio RdRp inh | Polio RdRp inh intensity | Mtb MbtI inh | Mtb MenB inh
37 | COc1cccc(C(C(=O)NC2CCCCC2)N(C(=O)c2ccccn2)c2cccnc2)c1 (stereo not given) | 103 | 98 | 0 | -26
38 | O=C(Nc1ccc(Cl)cc1)C1CCCC1 | 104 | 114 | -6 | -7
39 | CCC(NC(=O)Cc1ccccc1)C(=O)O (stereo not given) | 100 | 101 | -10 | -3
40 | CCOc1ccc(/C=N/n2cnc3ccccc3c2=O)cc1CN1CC2CC(C1)c1cccc(=O)n1C2 (stereo not given) | 103 | 103 | -8 | -23
41 | Cc1cccc(N=C2SCC(=O)N2c2cccc(C)c2)c1 | 101 | 107 | -11 | -8
42 | CCn1c2ccc(OC)cc2c2nc3ccccc3nc21 | 69 | 196 | 8 | -10
43 | O=c1c2sc3ccccc3c2n(Cc2ccccc2F)c(=O)n1Cc1ccco1 | 101 | 105 | 74 | 0
44 | O=C1CC(C(=O)c2ccccc2)N=C(Nc2ccc(Cl)cc2Cl)N1 (stereo not given) | 100 | 102 | -17 | -10
45 | Cc1nc2ccccc2nc1OCC(=O)N(C1CCCCC1)C1CCCCC1 | · | · | 3 | -25
46 | Cc1nn(-c2ccccc2)c2c1N(CC(=O)N1CCCCC1)C(=O)CS2 | 100 | 101 | 5 | 13
47 | CCOc1ccc2nc3sc(C(=O)Nc4nonc4C)c(N)c3cc2c1 | 94 | 141 | 29 | -25
48 | CCNc1cc(N)[n+](CC)c2n[nH]c(N)c12 | 101 | 104 | -1 | 10

Look-ups from the results shown:
Mtb MbtI inh result of entry 43 → 74
Polio RdRp inh result of entry 28 → 106
Mtb MbtI inh result of entry 15 → -9
Mtb MenB inh result of entry 7 → -12
Mtb MenB inh result of entry 38 → -7
Polio RdRp inh result of entry 8 → 100

Continuation.
cpd | SMILES | Polio RdRp inh | Polio RdRp inh intensity | Mtb MbtI inh | Mtb MenB inh
49 | Cc1cccc(NCN2C(=O)CSC2=O)c1C | 100 | 105 | · | -16
50 | CCOC(=O)c1cnc(SCc2ccccc2)nc1N | 104 | 104 | -9 | -11
51 | COc1ccc(S(=O)(=O)N2Cc3ccccc3CC2C(N)=O)cc1OC (stereo not given) | 102 | 103 | 0 | 0
52 | O=C(NCC1CCCO1)c1cc2ccccc2oc1=O (stereo not given) | 104 | 103 | 90 | -4
53 | CN(C)c1ccc2nc3c(=O)n(CCc4ccccc4)c(=O)[nH]c3nc2c1 | 93 | 183 | 7 | 1
54 | S=C(Nc1ccccc1)Nc1ccc2c(c1)oc1ccccc12 | 97 | 94 | 6 | -47
55 | COc1ccc(N=c2scc(C)n2C(=O)c2ccccc2Cl)cc1 | 107 | 112 | -9 | -8
56 | C=CCn1c(NCc2ccc(Cl)cc2)nc2ccccc21 | 102 | 102 | -3 | -4
57 | CC(C)CNC(=O)C1(c2cccs2)CCOCC1 | 105 | 102 | 12 | 1
58 | CCN1CCC(=NNc2ccc(Cl)c(C(=O)O)c2)CC1 | 103 | 100 | 32 | 16
59 | O=C1C(c2cc(Cl)cc(Cl)c2)=C(O)c2ccccc21 | 98 | 94 | 89* | -32
60 | CC1(C)CC(=O)C(C=NCc2ccco2)=C(O)C1 | 103 | 103 | 1 | 7

Shown screen by screen: 3 of the compounds above.
#50 CCOC(=O)c1cnc(SCc2ccccc2)nc1N
#51 COc1ccc(S(=O)(=O)N2Cc3ccccc3CC2C(N)=O)cc1OC (stereo not given)
#52 O=C(NCC1CCCO1)c1cc2ccccc2oc1=O (stereo not given)

Assay by compound	50	51	52
Polio RdRp inh	104	102	104
Polio RdRp inh intensity	104	103	103
Mtb MbtI inh	-9	0	90
Mtb MenB inh	-11	0	-4

Complete entries, quoted from the list. Values in the order: Polio RdRp inh	Polio RdRp inh intensity	Mtb MbtI inh	Mtb MenB inh
`CCC(=O)n1nc(-c2ccccc2)nc1N` in the list: 106	98	8	-68
`O=C(O)CCN1C(=O)c2ccc(Oc3ccc4c(c3)C(=O)N(CCC(=O)O)C4=O)cc2C1=O` in the list: 102	103	-9	-31
`CCN(CC)c1ncnc2sc(C)c(C)c12` in the list: 100	103	0	·
`O=C(Cc1ccccc1)N1CCN(CCCc2ccccc2)CC1` in the list: 100	96	·	-1
`CC1CC(NNc2ccc(Br)cc2)NC(=S)N1` (stereo not given) in the list: 101	104	15	-7

Next part:
cpd | SMILES | Polio RdRp inh | Polio RdRp inh intensity | Mtb MbtI inh | Mtb MenB inh
61 | Cc1ccccc1N(C)C(=O)c1cn(C)c(=O)c2ccccc12 | 99 | 101 | 30 | 4
62 | COCC(C)NS(=O)(=O)c1ccc(F)cc1 (stereo not given) | 105 | 106 | · | -5
63 | Cc1ccccc1CN(C)C(=O)C1CC(=O)N(Cc2ccccc2)C1 (stereo not given) | 104 | 101 | 0 | 12
64 | CC1(C)CSC(=NCCc2ccccc2)N1C(=O)/C=C/c1ccco1 | 101 | 105 | -1 | -27
65 | CCn1c2ccccc2c2cc(C=Nc3ccc(Cl)cc3)ccc21 | 104 | 106 | · | -20
66 | Nc1ccccc1N=C(c1ccccc1)c1c[nH]n(-c2ccccc2)c1=O | 94 | 101 | 6 | 11
67 | CC(C)OC(=O)C(C#N)c1nc2ccccc2nc1N1CCN(c2ccccc2)CC1 (stereo not given) | · | · | -12 | -6
68 | Cc1cccc(-n2nc3c(c2NC(=O)Nc2cccc(Cl)c2)CSC3)c1 | 102 | 101 | 13 | -12
69 | c1ccc2c(c1)[nH]c1nc(SCCN3CCOCC3)nnc12 | 102 | 103 | 21 | 12
70 | Cc1nn(Cc2ccccc2Cl)c(Cl)c1/C=C/C(=O)OCC#N | 101 | 107 | 4 | -19
71 | O=C(Cn1cncn1)c1ccc(Br)cc1Br | 105 | 100 | 4 | ·
72 | COc1ccc(C2/C(=C(\O)c3ccc(C)cc3)C(=O)C(=O)N2CCC(=O)O)cc1 (stereo not given) | 103 | 103 | -15 | -16

Next section.
cpd | SMILES | Polio RdRp inh | Polio RdRp inh intensity | Mtb MbtI inh | Mtb MenB inh
73 | CCn1cc(-c2ccccc2)c(C(=O)O)c1C | 102 | 101 | 11 | -22
74 | CCc1ccc2nc(SCC(=O)N3CC(=O)Nc4ccccc43)c(C#N)cc2c1 | 104 | 104 | 23 | 15
75 | CN(Cc1ccccc1)C(=O)COC(=O)c1ccccc1O | 101 | 99 | -48 | ·
76 | Cc1cccc(Oc2ccc(NC(=O)C3CCC(C)CC3)cc2)c1 (stereo not given) | 103 | 108 | 9 | -32
77 | NC(=S)N1CCCC1 | 97 | 96 | -3 | -16
78 | CCN(CC)C(=O)Nc1c(C)cc(C)cc1C | 101 | 99 | -3 | -9
79 | C#CCN1C(=O)C(O)(CC(=O)c2ccccc2)c2ccccc21 (stereo not given) | 104 | 103 | -12 | -27
80 | N=C(N)N=Nc1c(O)[nH]c2ccccc12 | 101 | 99 | 15 | -145
81 | FC(F)(F)c1cc(-c2cccs2)nc2c1cnn2Cc1cccnc1 | 102 | 101 | 18 | 0
82 | Cc1nn(-c2ccccc2)nc1C(=O)Oc1cncc(Cl)c1 | 103 | 105 | -3 | 7
83 | Cc1nn(-c2ccccc2)c(C)c1C(O)c1nnc(-c2ccccc2)o1 (stereo not given) | 102 | 101 | -4 | -2
84 | Cc1c(/C(CC(C)C)=N/O)c2ccccc2n1C | 103 | 104 | -11 | 5

(cont.)
cpd | SMILES | Polio RdRp inh | Polio RdRp inh intensity | Mtb MbtI inh | Mtb MenB inh
85 | O=C(Cn1nc(C(F)F)cc1C1CC1)NCCC1=CCCCC1 | 100 | 99 | 2 | 8
86 | Cc1ccnc(NC(=O)CCCOc2ccc(Cl)cc2Cl)c1 | 102 | 104 | -2 | 27
87 | O=C1CCN(S(=O)(=O)c2ccc(Br)cc2)CCN1 | 107 | 112 | 7 | 0
88 | CCCOc1cccc2ccccc12 | 101 | 103 | 31 | -49
89 | COC(=O)Nc1sc(C)nc1-c1ccccc1 | 103 | 102 | 4 | 29
90 | O=C(Nc1ccc2c(c1)nc1n2CCCCC1)c1ccccc1NS(=O)(=O)c1cccs1 | 104 | 105 | 70 | -8
91 | O=C(Nc1ccc2c(c1)oc1ccccc12)C1CCCO1 (stereo not given) | 102 | 102 | 16 | -16
